CSC inhib – cancer stem cell inhibition; cancer stem cell-like cells viability, luminescence; inhibition, % at 7.5 µM; hit rate 1.1% among 300,000; AID 2717;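 active = mean at 75% or more and at least half the replicates too; inconclusive = mean and replicates disagree; tested in HMLE shEcad cells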;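 also: 0% = median of negative and 100% = median of positive control wells; the first replicate is given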
UUG fidelity – modulators of start codon recognition fidelity in yeast | activity score, % at 18.7 µM | hit rate 0.13% among 350,000 | S. cerevisiae UUG-firefly luciferase reporter, luminescence/redox ratio;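 active = replicate mean at a twofold rise or more, about +100% in these data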;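 also: firefly luciferase made from a UUG start codon reports start codon fidelity; reporter light over untreated wells divided by growth signal over untreated wells; some hits fall short of that in this replicate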
eIF4H FP inh – inhibitors of RNA binding by human eIF4H | eIF4H fluorescence polarization binding assay | inhibition, % at 35 µM | hit rate 0.94% among 290,000 | AID 2012;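 active = 50% or more with normal probe brightness, or confirmed in later tests; inconclusive = above 50% with abnormal brightness, or retests that disagree; inactive = below 50% or failed in later tests; about a fifth of its hits are not listed in these tables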;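 also: calls also rest on retests at 20 µM and on dose response follow-up; 0% = protein and probe with vehicle and 100% = probe without protein; strong numbers were not always called active; many hits fall short of the cut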
Rce1 inh – inhibitors of yeast Ras-converting enzyme; Q03530; yeast membranes, quenched prenylated peptide cleavage fluorescence; calls only; hit rate 0.27% among 290,000; AID 2563;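 active = fall in fluorescence gain of 50% or more versus controls, with final raw signal at or below 3038400; inconclusive = same 50% fall but final raw signal above 3038400; inactive = fall in fluorescence gain under 50%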;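 also: plate controls were neutral control wells for no effect and wells lacking membranes for full effect; tested at 10 µM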
Target sequence (Q03530 whole entry, looked up): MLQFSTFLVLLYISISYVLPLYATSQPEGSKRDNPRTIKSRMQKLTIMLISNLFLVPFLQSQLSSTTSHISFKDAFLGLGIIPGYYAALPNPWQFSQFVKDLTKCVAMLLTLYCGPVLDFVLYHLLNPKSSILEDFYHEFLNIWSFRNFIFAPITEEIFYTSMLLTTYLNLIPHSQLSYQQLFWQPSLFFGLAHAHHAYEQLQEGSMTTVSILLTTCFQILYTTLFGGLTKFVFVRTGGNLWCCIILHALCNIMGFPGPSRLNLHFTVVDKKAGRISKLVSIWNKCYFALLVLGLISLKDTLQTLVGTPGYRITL
PABP FP inh – PABP-poly(A) binding inhibition; inhibition, % at 35 µM; PABP-poly(A) RNA binding, fluorescence polarization; hit rate 1% among 290,000; P11940; AID 2014;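 active = 50% or more with normal probe brightness, or confirmed in later tests; inconclusive = above 50% with abnormal brightness, or retests that disagree; inactive = below 50% or failed in later tests; about a fifth of its hits are not listed in these tables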;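 also: calls also rest on retests at 20 µM and on dose response follow-up; controls were probe without protein and protein plus probe with vehicle; some compounds called inactive have numbers as strong as hits; many hits fall short of the cut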
MT1-MMP act inh – blocks activation of human MT1-MMP | P50281 | HT1080 RFP-PRO-GFP cells, GFP/RFP ratio fluorescence, overnight; percent of plate control window, DMSO zero | GFP/RFP ratio change, % at 20 µM | hit rate 0.061% among 360,000 | AID 651647;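 active = GFP/RFP ratio change of at least 30% with cell ATP level not reduced by more than half and red fluorescence within 50% of control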; also: strong numbers were not always called active
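Assay system: HT1080 cells carrying an RFP-PRO-GFP reporter | Dosing: Single dose of 20 µM compound, 1% DMSO final | Incubation: Cells overnight before dosing, compound overnight, 37 °C, 5% CO2 | Evaluation: GFP/RFP fluorescence ratio | Control set: DMSO and RFP-L50D-GFP cell wells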
HIV Env fusion – blocks HIV Env-driven cell-cell fusion. inhibition, % at 12.3 µM. HeLa-JRFL Env/CEM21 cell fusion, luciferase. AID 651610. hit rate 1.1% among 360,000;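 active = mean replicate inhibition score of at least 50 and every replicate individually at or above 50; inconclusive = only one of the two criteria met; inactive = mean below 50 and not all replicates reaching 50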;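 also: 0% = plate neutral controls and 100% = maraviroc near 300 nM; one replicate is shown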
eIF4H FP inh retest – further read-out of eIF4H FP inh, marked with its call; inhibition, %; compound at 20 µM; confirmation average;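 mean of two retest wells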
PABP FP inh retest – recorded beside PABP FP inh, whose call it bears; inhibition, %; compound at 20 µM; confirmation repeats;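 mean of two retest wells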
MT1-MMP act inh RFP – also measured in MT1-MMP act inh; calls as there; RFP signal change, %; measured here: RFP expression control read;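 0 = vehicle wells; hits needed this value within 50% of zero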
An asterisk follows results filed as active; i = inactive; ? = inconclusive; / = no result given; & = joins results of further samples.

SMILES	CSC inhib	UUG fidelity	eIF4H FP inh	Rce1 inh	PABP FP inh	MT1-MMP act inh	MT1-MMP act inh RFP	HIV Env fusion	others
CC(C)(C)n1nnnc1C(c1cccs1)N1CCC2(CC1)C(=O)NCN2c1ccccc1 (configuration not stated)	/	5	/	/	/	3	-3	-171
CCOc1cc2c(cc1OCC)-n1cccc1C(c1cc(C)c(OC)cc1C)NC2 (configuration not stated)	5	2	-7	i	-12	1	-5	-8
CCOCC1(CCc2ccccc2)C(=O)NC(=S)NC1=O	/	-9	/	/	/	-5	-1	-5
Cc1nc2ncnn2c(C)c1CCC(=O)N1CCC2(CC1)OCCO2	-19	-24	-8	i	-2	0	7	-18
CCOP(=O)(Cc1cc(C(=O)CC)c(C)o1)OCC	-18	-11	-5	i	1	-4	0	-4
COc1ccc(OC)c(-n2c(O)c(/C=C3\C(C)=Nc4ccccc43)c(=O)[nH]c2=O)c1	0	-3	?	i	?	-55	35	18
N#CCCn1cc(C(=O)Nc2ccccc2Cl)c(-c2ccc([N+](=O)[O-])cc2)n1	-8	2	1	i	6	-1	0	-14
O=C1N(CN2CCOCC2)c2ccccc2C1(O)c1c[nH]c2ccccc12 (configuration not stated)	/	-21	1	i	-1	10	11	-38
COC(=O)c1ccccc1N=Cc1c(O)[nH]c(=O)[nH]c1=O	4	-15	64	i	-1	-6	-1	11	eIF4H FP inh retest=-4;PABP FP inh retest=0
Cc1ccc2c(c1)C1CN(C)CCC1N2C(=O)Cn1nnc(-c2ccccc2F)n1 (configuration not stated)	/	-16	-5	i	4	0	6	-6
CCOc1ccc(-n2c(-c3ccoc3)nc3ccccc3c2=O)cc1	/	-14	3	i	-4	1	-4	-4
COc1ccc2[nH]c(C)c(CCN3CCC(=O)C(C)C3C)c2c1 (configuration not stated)	-7	10	8	i	20	2	6	23
CCN1CCN(c2ccc([N+](=O)[O-])cc2C=C2C(=O)NC(=O)NC2=O)CC1	-5	-7	6	i	-4	7	5	-21
O=C(c1n[nH]c(=O)c2ccccc12)N1CCC2(CC1)OCCO2	-7	/	1	i	-2	0	3	-8
CCOP(=O)(Cc1cc(C(C)=O)c(C)o1)OCC	-18	/	47	i	9	-7	-2	-3
Cn1nc(-c2ccc(OCC(=O)N3CCN(Cc4ccccc4)CC3)cc2)c2ccccc2c1=O	-1&4	12	-9&-1	i	5&-5	12	-13	71*
CC(=O)C1=C(C)OC(N)=C(C(=O)OC(C)C)C12C(=O)Nc1ccccc12 (configuration not stated)	/	-13	-4	i	4	-2	3	/
CC[C@H]1CC2CN3CCc4c([nH]c5cc(OC)ccc45)[C@](C(=O)OC)(C2)[C@H]13	3	32	/	i	/	1	-3	/
[N-]=[N+]=CC(=O)OC[C@H](N)C(=O)O	10	-21	5	i	11	2	3	/
C=CCn1c(C)c(C=C2C(=O)NC(=O)NC2=O)c2ccccc21	1	1	78	i	13	2	13	19	eIF4H FP inh retest=-8;PABP FP inh retest=48
COc1cccc(N2C(=O)NC(=O)/C(=C\c3cn(C)c4ccccc34)C2=O)c1	0	-20	?	i	?	-9	5	10
O=C(CSC1c2ccccc2-c2ccccc21)N/N=C/c1ccccc1	35	/	-1	i	-1	-15	-5	/
CCC(=O)N1N=C2C3CCN(CC3)C2C1c1ccc(C)cc1 (configuration not stated)	-16	-15	-4	i	-1	/	/	-2
CC(C(=O)c1c[nH]c2ccccc12)N1CCSCC1 (configuration not stated)	0	12	-1	i	0	-8	-4	/

Sorted by count of non-hydrogen atoms (smallest number first): part of the list above.
SMILES	CSC inhib	UUG fidelity	eIF4H FP inh	Rce1 inh	PABP FP inh	MT1-MMP act inh	MT1-MMP act inh RFP	HIV Env fusion	others
[N-]=[N+]=CC(=O)OC[C@H](N)C(=O)O	10	-21	5	i	11	2	3	/
O=C(CSC1c2ccccc2-c2ccccc21)N/N=C/c1ccccc1	35	/	-1	i	-1	-15	-5	/
CCN1CCN(c2ccc([N+](=O)[O-])cc2C=C2C(=O)NC(=O)NC2=O)CC1	-5	-7	6	i	-4	7	5	-21

The main list resumes, starting two compounds before the break.
SMILES	CSC inhib	UUG fidelity	eIF4H FP inh	Rce1 inh	PABP FP inh	MT1-MMP act inh	MT1-MMP act inh RFP	HIV Env fusion	others
CCC(=O)N1N=C2C3CCN(CC3)C2C1c1ccc(C)cc1 (configuration not stated)	-16	-15	-4	i	-1	/	/	-2
CC(C(=O)c1c[nH]c2ccccc12)N1CCSCC1 (configuration not stated)	0	12	-1	i	0	-8	-4	/
COC(=O)OCC12CCC(O1)C1(C)C(=O)OCC21 (configuration not stated)	-9	-4	2	i	5	7	8	9
CCC(C)C(=O)N[C@@H](c1ccccc1)[C@@H](O)C(=O)O[C@H]1C[C@@]2(O)[C@@H](OC(=O)c3ccccc3)C3[C@](C)(C(=O)[C@H](OC(C)=O)C(=C1C)C2(C)C)[C@@H](O)C[C@H]1OC[C@@]31OC(C)=O (some centres not stated)	53	34	-6	i	3	-5	-15	/
COc1cccc(CNCCc2c[nH]c3ccccc23)c1OC	0	/	1	i	11	-1	1	12
CCC(C(=O)N1CCC2(CC1)OCCO2)c1ccccc1 (configuration not stated)	-16	-17	-7	i	2	1	3	/
Cc1sc2c(c1C)C(c1ccc(C(C)(C)C)cc1)=NCC(=O)N2CC(=O)Nc1nccs1	-2	-14	-8	i	-6	-10	-4	29
CNC(=S)N(C)CCc1cc2c(c(OC)c1C=C1C(=O)NC(=O)NC1=O)OCO2	-6	-10	20	i	-6	-4	1	-13
Nc1ccccc1C(=O)OC1CSC1	-12	-4	85	i	24	5	7	-52	eIF4H FP inh retest=-3;PABP FP inh retest=7
C[N+]12CCC(CC1)C(C(O)(c1cccc(Cl)c1)c1cccc(Cl)c1)C2 (configuration not stated)	-5	4	-9	i	42	-5	-3	-35
NCCc1nc2ccccc2s1	-8	/	-2	i	?	6	4	6
CCOc1ccc(N=Cc2c(O)n(C(C)(C)C)c(=O)[nH]c2=O)cc1	1	-9	-8	i	6	2	1	-9
CCCN(CC#CCO)CCC	-3	-13	-1	i	-4	8	4	/
CCOC(=O)[C@]12Cc3cc(C)ccc3[C@H]1N(Cc1ccccc1)C(=O)c1ccccc12	/	-6	/	/	/	-6	-6	-2
CS(=O)(=O)N1Cc2ccccc2-n2nncc2C1	/	0	/	/	/	2	2	-23
Cc1c2ccncc2c(C)c2c1[nH]c1ccccc12	109*	-4	39	i	-2	-56	-4	/
Cc1ccc(S(=O)(=O)N2Cc3ccccc3-n3nncc3C2)cc1	/	-6	/	/	/	3	-8	?
O=C(NC1CCCCC1)Oc1cc2oc(=O)sc2cc1Cl	0	/	2	i	5	-3	-1	-22
O=C(C1CCC(=O)N1Cc1ccccc1Cl)N1CCC2(CC1)OCCO2 (configuration not stated)	/	-11	-2	i	-11	-2	3	-41
CN1CCN(C(=O)COc2ccc(C(C)(C)C)cc2Br)CC1	17	-4	-1	i	-2	-3	-4	-9
Cc1c(/C=N/O)c2ccccc2n1C	-18	-3	8	i	29	8	4	-231
O=c1c2ccccc2[nH]c(=S)n1-c1ccc2c(c1)OCO2	-11	-8	10	i	4	3	4	-29
O=C(c1ccccc1F)N1C[C@H]2C[C@@H](C1)c1cccc(=O)n1C2	1	-11	-4	i	10	2	5	/
O=c1cccc2n1CC1CC2CN(Cc2cccc(Cl)c2Cl)C1 (configuration not stated)	-15	-2	-1	i	-8	-14	-13	24
CN1CCN(c2ccc(S(C)(=O)=O)cc2[N+](=O)[O-])CC1	10	9	-3	i	23	0	5	-20
COC(=O)C1=C(c2ccc(OC(F)(F)F)cc2)C[C@@H]2CC[C@H]1N2C(=O)NCCNC(C)=O	-13	-13	/	/	/	-1	1	-3
CN(C(=O)COC(=O)c1cn(C)c2ccccc12)C1CCCCC1	-8	-7	/	/	/	2	-2	/
O=c1[nH]c(=S)n(-c2ccccc2F)c(O)c1C=NCCN1CCNCC1	-3	-8	-4	i	-1	0	1	-22
CC12CCC3C(CC=C4CC(O)CCC43C)C1C/C(=C\c1ccccc1F)C2=O (configuration not stated)	99*	/	-16	i	11	-1	-5	0
COC(=O)C1=C(c2ccc(OC)c(OC)c2)C[C@@H]2CC[C@H]1N2C(=O)NC1CCCCC1	-4	-16	/	/	/	1	0	11
C[C@]12CC[C@H](O)C[C@H]1CC[C@@H]1C2CC[C@]2(C)[C@@H](C3=CC(=O)OC3)[C@@H](O)C[C@]12O (some centres not stated)	85*	2	/	/	/	-9	-8	-66
O=Cc1cn(CCCOc2ccccc2)c2ccccc12	7	/	?	i	58*	-6	-10	-6	PABP FP inh retest=103*
COc1ccccc1C1CC2CCC(C1OC(C)=O)N2Cc1ccccc1 (configuration not stated)	1	-17	-11	i	-12	1	3	9
O=C(NC(c1ccc(Cl)cc1)P(=O)(Oc1ccccc1)Oc1ccccc1)OCc1ccccc1 (configuration not stated)	/	-16	2	i	6	0	1	/
COc1ccccc1OCC#CCN1CCCC(C)C1 (configuration not stated)	12	-11	12	i	1	-1	1	-5
CCC(=NCc1ccc2c(c1)OCO2)c1c(O)n(C2CCCCC2)c(=O)[nH]c1=O	19	-11	2	i	-6	-10	-13	16
Cc1ccc2[nH]c(C)c(CCNCc3ccco3)c2c1	-9	6	1	i	18	-3	3	-1
COc1ccc(C(=O)c2nc3ccccc3n2C(C)C)cc1OC	-2	-11	-7	i	-4	-2	-4	12
COc1ccc(OCCSc2nnnn2C2CCCCC2)cc1	-5	-14	-10	i	-7	-2	-1	/
CCC(C)NC(=O)c1c(N)n(CCCOC)c2nc3ccccc3nc12 (configuration not stated)	19	7	61*	i	68*	-19	4	-2
CN(C)c1cccc2c(C#N)ccc(N(C)C)c12	0	/	14	i	0	3	6	-7
CC(C)(O)C(=O)Nc1ccc([N+](=O)[O-])c(C(F)(F)F)c1	-11	5	/	/	/	0	-5	/
O=C(c1ccc(Cl)cc1)C1CCCN(C2CCSCC2)C1 (configuration not stated)	42	/	-13	i	-2	3	5	15
CN(C)CCN=Cc1c(O)n(-c2cccc(C(F)(F)F)c2)c(=O)[nH]c1=O	-8	5	-1	i	22	-5	4	/
CP(=O)(O)CCCN	-9	-11	4	i	42	10	5	7
O=P(Nc1c(Cl)cccc1Cl)(c1ccccc1)c1nc2c(s1)CCCC2 (configuration not stated)	-24	-9	-2	i	-5	8	5	/
Cc1cc(N2C(=O)C3CCCN3C2c2cccc(Cl)c2)no1 (configuration not stated)	-10	-18	1	i	14	2	8	-37
O=C(Cc1ccccc1)Oc1ccc(N2C(=O)CCC2=O)cc1	17	-11	-5	i	4	0	1	16
Cc1cccc(N2C(=O)NC(=O)/C(=C/c3ccc([N+](=O)[O-])o3)C2=O)c1	-5	/	80*	/	122*	/	/	/
CN(C)c1ccc([P+](=O)c2ccc(N(C)C)cc2)cc1	/	/	0	i	-5	3	-1	4
CC(=O)c1ccc(OC(C)C)c(Cc2c(O)[nH]c(=S)[nH]c2=O)c1	-7	/	3	i	6	-2	1	10
CCCCn1c(O)c(C(C)=Nc2ccc(C(=O)O)cc2)c(=O)[nH]c1=O	-19	-18	-18	i	21	-19	5	-1
Cc1cc(C)c(S(=O)(=O)N2Cc3ccccc3-n3nncc3C2)c(C)c1	/	-13	/	/	/	-4	-22	?
O=c1[nH]c2ccccc2n1C1CCN(C(c2cc3ccccc3o2)c2nnnn2Cc2ccccc2)CC1 (configuration not stated)	/	-25	/	/	/	-35	-29	34

From PubChem

An excerpt; rates above refer to the full screens.
